Mtb H37Rv: M. tuberculosis H37Rv growth inhibitors, H37Rv strain (AID 1626); M. tuberculosis H37Rv growth inhibition; higher % means a stronger effect; one-dose inhibition, % at 10 µM; IC50 in µM for titrated hits; actives 0.95% (n = 220,000);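 active means confirmed in a dose series; inconclusive means inhibition above 80% but not taken into the dose series; inactive means below 80% or under 30% at every dose of the series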;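 further: bacteria incubated seven days before Alamar blue readout; 0% = bacteria only wells and 100% = bacteria with antibiotic wells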
Arbovirus inh: arbovirus infection inhibition; arbovirus infection cell-based antiviral screen; inhibition, % at 10 µM; actives 0.37% (n = 200,000); AID 1251;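 active means inhibition from about 30%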;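 further: bluetongue infection of BSR cells; cell survival read as ATP light after 72 h; 0% = infected wells without compound and 100% = uninfected wells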
Mtb betalactam: beta-lactam sensitization of Mtb H37Rv; M. tuberculosis H37Rv growth with meropenem, percent inhibition; hits of this screen are not shown here; inhibition, % at 25 µM; AID 434955; actives 0.27% (n = 330,000);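 active means about 74% or more and at least 40 points above the plate without the antibiotic, then above 30% in a dose series; inconclusive means first-round hits that could not be retested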;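 further: growth measured after seven days incubation then overnight dye step; 0% = bacteria only wells and 100% = bacteria with antibiotic; twin plates without the antibiotic show which effects depend on it; some results filed as inactive read as strong as hits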
YopH PTP inh: YopH (Yersinia) phosphatase inhibition; actives 0.16% (n = 140,000); inhibition, %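 (about 10 µM by stock and volumes)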; fluorescence Ex485/Em525; AID 898;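 active means inhibition of 50% or more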;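 further: controls were vehicle for no effect and minimum signal wells for full effect; inactives centre near -20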
RecA intein inh: blocks M. tuberculosis RecA intein splicing; P9WHJ3; cell-free RecA intein splicing, fluorescence; inhibition, %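 (about 9 µM by stock and volumes)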; actives 0.75% (n = 290,000); AID 2221; in the data active means inhibition above about 30%; inconclusive means no clear call, values can overlap the other calls;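 further: 0% = vehicle wells and 100% = reference inhibitor control wells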
Target sequence (P9WHJ3 whole entry, looked up): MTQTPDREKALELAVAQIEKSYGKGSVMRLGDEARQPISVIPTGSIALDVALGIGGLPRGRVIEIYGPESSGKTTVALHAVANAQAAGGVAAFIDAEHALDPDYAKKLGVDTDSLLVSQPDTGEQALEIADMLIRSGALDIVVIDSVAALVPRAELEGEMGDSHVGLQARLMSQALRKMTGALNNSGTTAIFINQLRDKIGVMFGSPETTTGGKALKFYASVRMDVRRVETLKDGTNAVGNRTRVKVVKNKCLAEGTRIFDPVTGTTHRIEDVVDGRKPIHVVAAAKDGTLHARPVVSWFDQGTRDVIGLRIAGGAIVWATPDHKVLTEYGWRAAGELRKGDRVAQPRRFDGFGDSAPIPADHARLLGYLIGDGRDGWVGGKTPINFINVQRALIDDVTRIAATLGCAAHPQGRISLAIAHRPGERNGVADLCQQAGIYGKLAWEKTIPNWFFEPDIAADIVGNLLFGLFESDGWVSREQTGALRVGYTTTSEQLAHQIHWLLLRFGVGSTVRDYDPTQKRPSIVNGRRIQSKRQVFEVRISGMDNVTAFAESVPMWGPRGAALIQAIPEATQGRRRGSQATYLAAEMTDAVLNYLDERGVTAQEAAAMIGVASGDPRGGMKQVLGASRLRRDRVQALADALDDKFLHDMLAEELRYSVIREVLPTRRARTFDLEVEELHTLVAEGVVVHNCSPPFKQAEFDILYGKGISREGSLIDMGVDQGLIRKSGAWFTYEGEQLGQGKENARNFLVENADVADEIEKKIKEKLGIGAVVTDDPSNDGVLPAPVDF
Arbovirus inh repeat: second read-out of Arbovirus inh, no call of its own (marks repeat the call); inhibition, %; measured here: 10K subset replicate screen; many hits read low in the repeat;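 first of two repeat runs on a subset; 0% = infected and 100% = uninfected wells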
Starred values were filed as active, the others as inactive; u = inconclusive; x = no result given; & = joins results of further samples. Only part of the results is shown, so the mix of outcomes need not match the whole.

SMILES | Mtb H37Rv | Arbovirus inh | Mtb betalactam | YopH PTP inh | RecA intein inh | others
COc1cccc(-c2nc(CS(=O)(=O)CC(=O)NC3CCCc4ccccc43)c(C)o2)c1 (stereo unspecified) | 0% | -21 | -4 | -24 | 1.0
Cc1ccc(S(=O)(=O)N2CCN(c3nc(C)nc4sc(C)c(C)c34)CC2)cc1 | 0% | -1 | x | 0 | 1.7
COc1ccc(C(=O)Nc2ccc(OCC(=O)N3CCOCC3)cc2)c(OC)c1OC | x | x | u | x | 2.0
COc1cccc(C(=O)NCC(=O)OCC(=O)c2ccccc2)c1 | -2% | 4 | 3 | -17 | -1.2
CC1CN(C2CC(C)(C)NC(C)(C)C2)CCC1=O (stereo unspecified) | -4% | 5 | -15 | -39 | 0.1 | Arbovirus inh repeat=4
CC1(C)C(Cl)C(=O)C(C(=O)c2ccccc2)C(=O)C1Cl (stereo unspecified) | x | x | -2 | x | -1.7
Cc1cccc([N+](=O)[O-])c1NC(=O)COC(=O)C1CC2CCCC(C1)C2=O (stereo unspecified) | x | x | -8 | x | -3.1
Cc1cc(=O)[nH]c(SCc2nc3ccccc3n2Cc2ccccc2)n1 | -8% | -10 | 38 | -35 | 1.4
CC(Oc1ccc2c3c(c(=O)oc2c1)CCCC3)C(=O)NCC1CCC(C(=O)O)CC1 (stereo unspecified) | x | x | -5 | x | -2.1
CCc1ccc(NC(=O)CS(=O)CC(=O)Nc2ccc(N3CCOCC3)cc2)cc1 (stereo unspecified) | x | x | -3 | x | -2.1
CC(C)=CC1C=C(C)C(C)C2C(=O)NNC(=O)C12 (stereo unspecified) | 5% | 2 | -3 | -27 | -0.4
CCOC(=O)c1nc(NCCc2ccccc2)sc1C | 4% | -25 | 20 | x | 0.4

No new results follow: entries from further up.
SMILES | Mtb H37Rv | Arbovirus inh | Mtb betalactam | YopH PTP inh | RecA intein inh | others
COc1ccc(C(=O)Nc2ccc(OCC(=O)N3CCOCC3)cc2)c(OC)c1OC | x | x | u | x | 2.0
COc1cccc(C(=O)NCC(=O)OCC(=O)c2ccccc2)c1 | -2% | 4 | 3 | -17 | -1.2
CC1CN(C2CC(C)(C)NC(C)(C)C2)CCC1=O (stereo unspecified) | -4% | 5 | -15 | -39 | 0.1 | Arbovirus inh repeat=4
CC1(C)C(Cl)C(=O)C(C(=O)c2ccccc2)C(=O)C1Cl (stereo unspecified) | x | x | -2 | x | -1.7
Cc1cccc([N+](=O)[O-])c1NC(=O)COC(=O)C1CC2CCCC(C1)C2=O (stereo unspecified) | x | x | -8 | x | -3.1
Cc1cc(=O)[nH]c(SCc2nc3ccccc3n2Cc2ccccc2)n1 | -8% | -10 | 38 | -35 | 1.4
CC(Oc1ccc2c3c(c(=O)oc2c1)CCCC3)C(=O)NCC1CCC(C(=O)O)CC1 (stereo unspecified) | x | x | -5 | x | -2.1

Later entries:
SMILES | Mtb H37Rv | Arbovirus inh | Mtb betalactam | YopH PTP inh | RecA intein inh | others
COc1ccc(/C=N/c2c(-c3ccco3)nc3ccccn23)cc1OC | -1% | -9 | -9 | -26 | -115
O=C1Nc2ccc([N+](=O)[O-])cc2OC1CCN1CCN(c2ccccc2)CC1 (stereo unspecified) | 3% | 0 | -3 | x | 3.5
CCC(=O)Nc1ccc(NC(=O)c2c(C)nc3ccccn23)cc1 | -16% | 0 | 6 | -32 | -0.9
CCn1c(=O)c(C(=O)NCc2cccnc2)c(O)c2ccccc21 | 4% | -8 | -2 | -31 | x
COc1ccc2oc(=O)c(C(=O)NCc3ccccc3)cc2c1 | x | x | -5 | x | -3.5
O=C1NC(=S)NC(=O)C1=Cc1ccc(OCC(=O)N2CCCC2)cc1 | x | x | 5 | x | -5.7
O=C(CCC1COc2ccccc2O1)Nc1ccc(Cl)cn1 (stereo unspecified) | -1% | 0 | -16 | -40 | x
Cc1sc2ncnc(N3CCC(C(=O)Nc4nc(-c5cccs5)cs4)CC3)c2c1C | x | x | 9 | x | -0.1
COCCn1c(C)cc(C2=NNC(=NC(C)(C)C)SC2)c1C | -1% | 1 | -1 | x | 2.2
CCCCCc1ccc(-c2ccc(/C=C/C(N)=O)cc2)nc1 | 4% | 0 | x | -6 | 4.1
COc1ccc(S(=O)(=O)c2nnn(-c3cccc(OC)c3)c2N)cc1 | -2% | -6 | -13 | x | 1.7
O=C(COC(=O)c1cnccn1)c1cccc([N+](=O)[O-])c1 | -3% | x | 0 | x | -0.8

By substructure: the compounds so far with a thiophene ring, fused or not (two)
SMILES | Mtb H37Rv | Arbovirus inh | Mtb betalactam | YopH PTP inh | RecA intein inh | others
Cc1ccc(S(=O)(=O)N2CCN(c3nc(C)nc4sc(C)c(C)c34)CC2)cc1 | 0% | -1 | x | 0 | 1.7
Cc1sc2ncnc(N3CCC(C(=O)Nc4nc(-c5cccs5)cs4)CC3)c2c1C | x | x | 9 | x | -0.1

(further entries)
SMILES | Mtb H37Rv | Arbovirus inh | Mtb betalactam | YopH PTP inh | RecA intein inh | others
COc1ccccc1C(=O)C1CCCN(C(=O)CN2CCCCC2=O)C1 (stereo unspecified) | -1% | 1 | 2 | x | -0.2
O=C(Nc1ccc(-c2nc3ccc(NC(=O)c4cccs4)cc3[nH]2)cc1)c1cccs1 | 5% | -18 | 1 | 4 | -4.2
CCCS(=O)(=O)N1CCN(c2ccccn2)CC1 | -13% | -1 | -2 | -17 | 0.4
Cc1ccnc(NC(=O)CC(c2ccccc2)c2ccccc2)n1 | 10% | 9 | -5 | x | 3.1
CCO[C@@H]1OC(C(=O)O)=C[C@H](c2ccc(Br)cc2)[C@H]1CCCO | -5% | -3 | -8 | x | -0.2
O=C(c1ccco1)N1CCN(C(=O)c2cc(-c3ccccn3)nc3ccccc23)CC1 | -1% | 6 | 3 | -35 | 1.1
CCOC(=O)N1CCN(C(=O)CSc2ccc(C(=O)OC)cc2[N+](=O)[O-])CC1 | x | x | -5 | x | 5.2
COc1ccc2c(Cl)c(-c3nnc(SCC(=O)c4ccccc4)n3C)sc2c1 | x | -10 | 23 | 2 | 2.1
OCCC1CN(C2CCN(c3ccccc3F)CC2)CCN1Cc1ccccc1 (stereo unspecified) | 1% | 9 | 22 | x | 0.0
CCOC(=O)c1ccc(CSc2n[nH]c(C)n2)o1 | 4% | 0 | -7 | -43 | -0.9 | Arbovirus inh repeat=-1
O=C(Nc1ccc(-c2nc3ccccc3o2)cc1)C1CCCO1 (stereo unspecified) | 9% | 3 | 73 | 0 | 3.6
Cc1n[nH]c(C)c1S(=O)(=O)N1CCC(C(=O)Nc2cccc(F)c2)CC1 | x | x | -1 | x | -3.5
Nc1ccn(Cc2cccc(F)c2)n1 | 5% | 6 | -3 | x | x
CCSc1nc2ccccc2[nH]1 | -3%&-4% | 5&1 | -11&-8 | -29&12 | -0.9&1.6
CSC1=N/C(=C/c2cccnc2)C(=O)N1Cc1ccc(Cl)cc1 | -4% | x | -8 | x | -3.4
C=CCn1c(SCC(=O)Nc2ncc(Cc3ccc(Br)cc3)s2)nnc1-c1ccncc1 | -3% | 3 | 3 | -7 | -1.1
CCCCNC(=O)C(=O)NCCCn1ccnc1 | -12% | 0 | 1 | x | 0.0
O=C(NCc1ccc2c(c1)OCO2)C(=O)Nc1ccccc1 | -6% | 0 | -4 | x | -0.7
c1ccc(-c2csc(Nc3nc(N4CCOCC4)nc(N4CCOCC4)n3)n2)cc1 | -4% | -9 | 32 | -42 | 2.2
CCOC(=O)C1(Cc2cccc(OC)c2)CCCN(C(=O)CSC)C1 (stereo unspecified) | x | x | 1 | x | 0.0
O=C(CCC1CCN(C(=O)c2cccc(Cl)c2F)CC1)Nc1ccccc1 | x | x | -5 | x | 0.7
O=C(O)C1C2C=CC(O2)C1C(=O)NCCC1=CCCCC1 (stereo unspecified) | -10% | 8 | 0 | -7 | 2.9
CCCCOC(=O)C1[C@H]2C(=O)N(CCc3ccccc3)C[C@]23C=C[C@H]1O3 (stereo partly specified) | -14% | 13 | -3 | -36 | 2.9
CCN(CC)c1ccc(NC(=O)c2ccccc2F)cc1S(=O)(=O)Nc1ccccc1OC | 7% | 9 | 10 | -34 | -0.3
Cc1cccc2c1N(CCCOc1ccccc1)C(=O)C2=O | -2% | 1 | 20 | -6 | 5.8
Cc1ccccc1Nc1c(N)c(=O)oc2ccccc12 | -10% | -9 | -6 | -17 | -6.5
Cc1cc(C)nc(NS(=O)(=O)c2ccc(-n3cccc3)cc2)n1 | -10% | -1 | -13 | 12 | 1.0
Cc1ccc(O)c(C(=O)c2cnc3c(c2)CN(CCC(C)C)C(=O)N3)c1 | -3% | 6 | 1 | 8 | 8.5
COc1cccc2sc(N3CCN(c4nc5ccccc5s4)CC3)nc12 | -6% | -9 | 40 | -54 | -3.0
CC1CCCC(N2CCN(S(=O)(=O)c3ccccc3)CC2)C1 (stereo unspecified) | x | x | -8 | x | 12
CSCCC(Nc1nc2ccccc2s1)C(=O)O (stereo unspecified) | -7% | 4 | 3 | -39 | -4.9
Cc1ccc2cc(C3C(C#N)=C(N)Oc4c3ccc3cccnc43)c(=O)[nH]c2c1 (stereo unspecified) | 3% | -30 | 2 | -17 | -0.6
C/C(=C\C(=O)C(F)(F)F)Nc1ccc(C(F)(F)F)cc1 | -6% | 4 | 0 | -40 | -3.0
COc1ccc(CCNC(=O)CSc2nnc(Cn3c(=O)sc4ccccc43)n2C)cc1OC | -7% | -2 | -4 | -47 | x
COc1ccc(C2CC(Cn3cc(C#N)c(=O)n(C)c3=O)ON2C)cc1 (stereo unspecified) | -2% | -8 | 4 | x | -0.3
O=C(Nc1nnc(-c2cc(Cl)ccc2Cl)o1)C1=COCCO1 | x | x | 97 | x | -0.8
CN1CCN(/C=C(\C#N)S(=O)(=O)c2ccc(Cl)cc2)CC1 | 2% | x | 3 | x | -4.2
Cc1ccc(-n2c(SCC(=O)N3CCCC3)nc3c(c2=O)SCC3)cc1 | x | 3 | 3 | -17 | -2.0
Cn1c(-c2cccc(Br)c2)n[nH]c1=O | -1% | 6 | 6 | x | -1.7
Cc1cccc(N(CC(=O)NC2CCCCC2)C(=O)c2ccc(C)s2)c1 | -10% | -5 | 7 | -12 | 1.1
O=C(CN1CCCCC1)Nc1ccc(NC(=O)c2ccccc2Cl)cc1Cl | 0% | -21 | 8 | -13 | 0.2
O=C(Cn1nc(-c2ccc(Cl)cc2)ccc1=O)NCC1CCCO1 (stereo unspecified) | -5% | -2 | 0 | -48 | 1.0 | Arbovirus inh repeat=0
CCN(Cc1ccccc1)S(=O)(=O)c1ccc(C(=O)Nc2nnc(C3CC3)o2)cc1 | u | -7 | 86 | -9 | 4.1 | Arbovirus inh repeat=-32
Oc1ccc2ccccc2c1C=Nc1ccccc1 | -10% | x | 2 | x | -0.9
O=C(Nc1ccc2c(c1)OCO2)C1CCN(Cc2cnn(-c3ccccc3)c2-n2cccc2)CC1 | 14% | -7 | 77 | -4 | x
CN(CC(=O)NC1CCCc2ccccc21)S(=O)(=O)c1cccs1 (stereo unspecified) | -3% | -3 | -1 | -18 | 3.3
O=C(O)c1cc(NC(=O)c2ccc(Cl)c([N+](=O)[O-])c2)cc(C(=O)O)c1 | -2% | -1 | 6 | x | -1.6
CN(C(=O)COC(=O)c1ccc(C#N)cc1)c1ccccc1 | x | x | 1 | x | -2.0
COc1cc(C(=O)NCCCCCCNC(=O)c2cc(OC)c(OC)c(OC)c2)cc(OC)c1OC | x | x | 0 | x | -1.6
O=[N+]([O-])c1ccc(NCCCN2CCOCC2)c(Cl)c1 | -4% | 2 | -7 | -35 | 2.2
Cc1ccc(C)c(NC(=S)N(Cc2cccc(Br)c2)CC2CCC(C(=O)O)CC2)c1 (stereo unspecified) | -3% | 22 | 7 | x | -4.0
O=S(=O)(c1cccc(-c2cn3cccnc3n2)c1)N1CCOCC1 | -5% | 1 | -1 | -18 | x
COc1ccc(OC)c(C2C(C(=O)c3ccco3)=C(O)C(=O)N2Cc2cccnc2)c1 (stereo unspecified) | x | x | -21 | x | 1.7
Cc1cc(C(=O)NCCCN2CCCC2=O)cs1 | 3% | -1 | -3 | -26 | 1.3
Cc1ccc2nc(-c3ccccc3)c(CC(=O)O)c(C(=O)O)c2c1 | -4% | -5 | 7 | x | 2.3
Cc1ccc(CNC(=O)CC(C)S(=O)(=O)c2ccc3c(c2)NC(=O)CS3)o1 (stereo unspecified) | x | x | 6 | x | -2.0
Cn1cc(C(=O)NCCO)c(=O)c2ccccc21 | 5% | 7 | -3 | x | -0.9
CCSc1cnc(-c2ccccc2)n1CC | 2% | 2 | 1 | -25 | -0.8
Cc1ccc(CNS(=O)(=O)c2ccc3c(c2)n(C)c(=O)n3C)cc1 | x | x | 3 | x | -7.4
CNC(=O)c1c(NC(=O)c2cccc(C)c2)sc2c1CCC2 | x | x | 94 | x | -9.8
CSc1ncc(Cl)c(C(=O)Nc2ccccc2Br)n1 | x | x | 0 | x | 0.5
CCc1ccc(-c2nc(NC(=O)c3ccc(OCC(=O)Nc4ccc(F)cc4)c(OC)c3)sc2C)cc1 | -1% | 0 | 3 | -20 | 3.7

Bioassay records (PubChem)
